From PubChem
Rce1 inhib = blocks yeast Ras-converting enzyme; Q03530; yeast membranes, quenched prenylated peptide cleavage fluorescence; calls only; 0.27% of 290,000 active;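 active means fall in fluorescence gain of 50% or more versus controls, with final raw signal at or below 3038400; inconclusive means same 50% fall but final raw signal above 3038400; inactive means fall in fluorescence gain under 50%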;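 further: plate controls were neutral control wells for no effect and wells lacking membranes for full effect; tested at 10 µM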
Target sequence (Q03530 whole entry, looked up): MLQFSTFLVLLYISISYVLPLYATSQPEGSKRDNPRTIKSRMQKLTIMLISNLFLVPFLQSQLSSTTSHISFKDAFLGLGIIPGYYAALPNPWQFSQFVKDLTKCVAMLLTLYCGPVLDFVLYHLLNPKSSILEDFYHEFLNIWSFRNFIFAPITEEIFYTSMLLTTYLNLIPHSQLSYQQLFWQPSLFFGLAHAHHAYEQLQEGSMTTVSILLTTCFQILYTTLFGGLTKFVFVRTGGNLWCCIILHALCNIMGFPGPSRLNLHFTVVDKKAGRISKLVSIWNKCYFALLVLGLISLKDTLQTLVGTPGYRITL
MT1-MMP act inh = MT1-MMP (human) activation inhibition | 0.061% of 360,000 active | HT1080 RFP-PRO-GFP cells, GFP/RFP ratio fluorescence, overnight; percent of plate control window, DMSO zero | GFP/RFP ratio change, % at 20 µM | P50281 | AID 651647;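 active means GFP/RFP ratio change of at least 30% with cell ATP level not reduced by more than half and red fluorescence within 50% of control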; further: strong numbers were not always called active
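Assay system: HT1080 RFP-PRO-GFP cells | Dosing: 20 µM single dose, 1% DMSO | Incubation: Cells overnight before dosing, compound overnight, 37 °C, 5% CO2 | Evaluation: GFP/RFP fluorescence ratio | Control set: DMSO-only wells and HT1080 RFP-L50D-GFP cell wells as references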
Yeast UUG start = modulators of start codon recognition fidelity in yeast; S. cerevisiae UUG-firefly luciferase reporter, luminescence/redox ratio; activity score, % at 18.7 µM; 0.13% of 350,000 active; AID 602363;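 active means replicate mean at a twofold rise or more, about +100% in these data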;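 further: firefly luciferase made from a UUG start codon reports start codon fidelity; reporter light over untreated wells divided by growth signal over untreated wells; some hits fall short of that in this replicate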
Env fusion inh = inhibitors of HIV Env-mediated cell fusion. inhibition, % at 12.3 µM. 1.1% of 360,000 active. HeLa-JRFL Env/CEM21 cell fusion, luciferase;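 active means mean replicate inhibition score of at least 50 and every replicate individually at or above 50; inconclusive means only one of the two criteria met; inactive means mean below 50 and not all replicates reaching 50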;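 further: 0% = plate neutral controls and 100% = maraviroc near 300 nM; one replicate is shown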
CSC inhib = blocks cancer stem cells; cancer stem cell-like cells viability, luminescence; inhibition, % at 7.5 µM; 1.1% of 300,000 active; AID 2717;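 active means mean at 75% or more and at least half the replicates too; inconclusive means mean and replicates disagree; tested in HMLE shEcad cells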;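 further: 0% = median of negative and 100% = median of positive control wells; the first replicate is given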
eIF4H inh = inhibitors of RNA binding by human eIF4H | AID 2012 | Q15056 | eIF4H fluorescence polarization binding assay | inhibition, % at 35 µM | 0.94% of 290,000 active;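 active means 50% or more with normal probe brightness, or confirmed in later tests; inconclusive means above 50% with abnormal brightness, or retests that disagree; inactive means below 50% or failed in later tests; about a fifth of its hits are not listed in these tables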;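 further: calls also rest on retests at 20 µM and on dose response follow-up; 0% = protein and probe with vehicle and 100% = probe without protein; strong numbers were not always called active; many hits fall short of the cut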
PABP FP inh = blocks human PABP binding to poly(A) RNA; 1% of 290,000 active; AID 2014; fluorescence polarization; inhibition, % at 35 µM;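 active means 50% or more with normal probe brightness, or confirmed in later tests; inconclusive means above 50% with abnormal brightness, or retests that disagree; inactive means below 50% or failed in later tests; about a fifth of its hits are not listed in these tables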;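 further: calls also rest on retests at 20 µM and on dose response follow-up; controls were probe without protein and protein plus probe with vehicle; some compounds called inactive have numbers as strong as hits; many hits fall short of the cut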
MT1-MMP act inh RFP = second read-out of MT1-MMP act inh, no call of its own (marks repeat the call); RFP signal change, %; measured here: RFP expression control read;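 0 = vehicle wells; hits needed this value within 50% of zero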
* marks the source's active call; other numbers are inactive results; i = inactive; ? = inconclusive; nt = not tested or not shown.

The opening 3 entries, to show the layout:
SMILES | Rce1 inhib | MT1-MMP act inh | MT1-MMP act inh RFP | Yeast UUG start | Env fusion inh | CSC inhib | eIF4H inh | PABP FP inh
Cc1c(C2C(C#N)=C(N)OC3=C2C(=O)CCC3)cnn1C (centres undefined) | i | 3 | 8 | nt | nt | -11 | 1 | 18
Cc1nn(CC(=O)NCc2ccccc2)c(=O)c2cccn12 | i | 0 | 1 | -10 | -3 | 0 | -6 | 9
O=C(CCC(=O)Nc1ccccc1)NNC(=O)CCc1ccccc1 | i | 1 | 6 | -13 | 19 | -14 | 2 | 3

The listing (from the top)
SMILES | Rce1 inhib | MT1-MMP act inh | MT1-MMP act inh RFP | Yeast UUG start | Env fusion inh | CSC inhib | eIF4H inh | PABP FP inh
Cc1c(C2C(C#N)=C(N)OC3=C2C(=O)CCC3)cnn1C (centres undefined) | i | 3 | 8 | nt | nt | -11 | 1 | 18
Cc1nn(CC(=O)NCc2ccccc2)c(=O)c2cccn12 | i | 0 | 1 | -10 | -3 | 0 | -6 | 9
O=C(CCC(=O)Nc1ccccc1)NNC(=O)CCc1ccccc1 | i | 1 | 6 | -13 | 19 | -14 | 2 | 3
C/C(=N\Nc1ccc(S(=O)(=O)Nc2ccccc2)cc1[N+](=O)[O-])c1ccc(N2CCOCC2)cc1 | i | 2 | 1 | nt | 5 | 12 | -2 | 7
c1ccc(-c2nc(-c3ccc(-c4ccon4)s3)no2)cc1 | i | 2 | 5 | 6 | -88 | nt | 43 | 12
CCc1ccc(CN2CCC(C(=O)Nc3ccc(Oc4ccccc4)nc3)CC2)o1 | i | 1 | -17 | -6 | 3 | 2 | -13 | 0
CN(C)c1cccc(CNC(=O)c2csc(COCCO)n2)c1 | nt | -2 | 2 | -5 | -3 | nt | nt | nt
COc1cc(C)c(/C=C(\C#N)C(=O)Nc2ccc(C)cc2)cc1C(C)C | i | 5 | -3 | nt | 7 | 17 | -5 | -9
CNC(=O)/C(C#N)=C/c1c(N2CCN(c3ccccc3)CC2)nc2c(C)cccn2c1=O | i | 6 | 5 | -3 | 16 | -15 | 7 | 9
Cc1ccc(C)c(NC(=O)Cc2ccc(S(=O)(=O)N3CCCCC3)s2)c1 | i | -1 | -2 | -4 | 12 | -9 | -4 | 7
Cc1ccc(-c2noc(C3CCCN(C(=O)c4ccc(C(C)(C)C)cc4)C3)n2)o1 (centres undefined) | i | -4 | -9 | 1 | 8 | nt | 6 | 14
CCOC(=O)Cc1csc2nc(-c3ccccc3)nn12 | i | 6 | -1 | -9 | 5 | -3 | 8 | -3
COc1ccc(NC(=O)C/C(C)=N/NC(=O)c2ccncc2)c([N+](=O)[O-])c1 | i | -1 | 0 | -9 | -4 | -9 | -11 | -10
COc1ccc(Nc2nc(N3CCOCC3)nc(N3CCOCC3)n2)cc1Cl | i | 1 | -9 | 8 | 21 | 4 | -14 | 5
O=C(CSc1nc2c(sc3ccccc32)c(=O)n1CCCN1CCOCC1)NCC1CCCO1 (centres undefined) | i | 5 | 1 | 16 | 21 | 1 | 15 | -2
CC(=O)N/C(=C\c1ccc(F)cc1)C(=O)NC(Cc1c[nH]c2ccccc12)C(=O)O (centres undefined) | i | -5 | 5 | -9 | nt | -4 | -8 | -12
COC(=O)C1=C(C)N=c2s/c(=C/c3cccs3)c(=O)n2C1c1cccs1 (centres undefined) | i | -5 | 1 | -21 | -7 | -3 | 12 | 10
CCc1nc2ccc(C(=O)N3CCN(c4ccc([N+](=O)[O-])cc4)CC3)cc2nc1CC | i | 1 | -9 | 4 | 12 | -13 | 1 | -6
O=C1CCC(C(=O)Nc2cccc(Br)c2)N1 (centres undefined) | i | -1 | 2 | 0 | -8 | -7 | -12 | 11
C[C@H]1COC(=O)[C@@H](CC(=O)OC(C)(C)C)C/C=C\C[C@H](CC(=O)NCCO)C(=O)N1 | nt | 3 | 3 | 10 | -26 | -11 | nt | nt
CCC(=O)Nc1ccc(Oc2ccc(NC(=O)CC)c(NC(=O)CC)c2)cc1 | i | 2 | 3 | nt | -2 | 0 | 5 | 4
O=C(CN1C(=O)NC2(CCCCC2)C1=O)Nc1cc(C(F)(F)F)ccc1N1CCCCC1 | i | -2 | 4 | 0 | 17 | -13 | nt | nt
CN(C)/N=C/c1ccc(OC(=O)c2cccc([N+](=O)[O-])c2)cc1 | i | 3 | 2 | -15 | 10 | 13 | 0 | 10
COc1cccc(S(=O)(=O)N2C[C@H](O)COC[C@H]3O[C@@H](CC(=O)N4CCN(C)CC4)CC[C@@H]32)c1 | nt | -3 | 3 | 2 | -21 | nt | nt | nt
CCc1cc2c(=O)c(-c3ccc(F)cc3)c(C)oc2cc1OCC(=O)O | i | 5 | 2 | -10 | -13 | -11 | 1 | 7
COc1ccc(OCCCC(=O)OCC(=O)Nc2c(C)nn(-c3ccccc3)c2C)cc1 | i | 5 | 4 | -9 | nt | -19 | nt | nt
Cc1cccc(-n2cnc3c(sc4nc(N5CCOCC5)c5c(c43)CCCC5)c2=O)c1 | i | -11 | -15 | nt | 37 | 11 | -7 | -10
C=CCn1c(C)nc2ccccc2c1=O | i | 0 | 2 | nt | 2 | -10 | -4 | 4
COc1ccc(NC(=O)CSc2nnnn2-c2ccccc2OC)c(OC)c1 | i | 1 | -1 | -6 | 1 | -18 | -10 | 2
Cc1ccc(CSc2ncnc3c2cnn3Cc2ccccc2)cc1 | i | 6 | 5 | -19 | 14 | 12 | -6 | 1

Taken from above.
`c1ccc(-c2nc(-c3ccc(-c4ccon4)s3)no2)cc1` in PABP FP inh = 12
`Cc1ccc(CSc2ncnc3c2cnn3Cc2ccccc2)cc1` in MT1-MMP act inh RFP = 5
`O=C(CSc1nc2c(sc3ccccc32)c(=O)n1CCCN1CCOCC1)NCC1CCCO1` (centres undefined) in PABP FP inh = -2

Other records follow:
SMILES | Rce1 inhib | MT1-MMP act inh | MT1-MMP act inh RFP | Yeast UUG start | Env fusion inh | CSC inhib | eIF4H inh | PABP FP inh
CCOC(=O)CCN(C(=O)Nc1ccccc1)C1CCCCC1 | nt | 1 | 4 | -7 | -3 | nt | nt | nt
C(=N\Nc1nc(N2CCOCC2)nc(N2CCOCC2)n1)/c1ccncc1 | i | 1 | -4 | nt | -10 | -5 | -7 | 8
COc1ccc(OCC(=O)NNC(=O)Nc2cccc(Cl)c2)cc1 | i | -2 | 1 | -18 | -19 | -4 | -3 | 4
COc1cc(/C=C/C(=O)OC(C)C(=O)NC2CCCCC2C)cc(Cl)c1OC (centres undefined) | i | 0 | 0 | -3 | -1 | 1 | nt | nt
O=C(c1ccco1)N1CCN(C(=O)C2CC(=O)N(c3ccccc3)C2)CC1 (centres undefined) | i | -3 | -1 | -18 | -13 | 12 | 0 | -1
Cn1c(=O)c2c(nc(N3CCOCC3)n2CCCNC2=NCCCCC2)n(C)c1=O | i | 1 | 5 | nt | -57 | -9 | -7 | -1
O=C(c1sc2cc([N+](=O)[O-])ccc2c1Cl)N1CCCCC1 | i | 11 | -4 | 5 | 11 | 13 | 0 | 12
Cc1cccc(S(=O)(=O)NC2CCCCCCC2)c1 | i | -2 | -3 | 0 | 11 | -17 | -7 | -1
NC(=O)c1cccc(-c2ccnc3c2CC(C(=O)NCCC(F)(F)F)O3)c1 (centres undefined) | nt | -3 | 2 | -16 | -3 | nt | nt | nt
CCSc1nnc(-c2cccc(S(=O)(=O)N(C)C)c2)n1-c1cc(OC)ccc1OC | i | 0 | 0 | 2 | -105 | 0 | -1 | 0
CCOc1ccc(CN2CCN(Cc3cc4c(cc3Cl)OCO4)CC2CCO)cc1 (centres undefined) | i | 3 | -2 | -1 | -2 | 41 | -6 | -3
COCCCNC(=S)NNC(=O)C1CC1c1ccc(C(C)(C)C)cc1 (centres undefined) | i | 3 | -6 | nt | 4 | nt | 5 | 3
CC(=O)c1cccc(NC(=O)CCS(=O)(=O)c2cccc3nsnc23)c1 | i | -1 | 3 | -20 | -44 | 1 | 2 | -1
CCOC(=O)C(C)(C)NS(=O)(=O)c1ccc(Cl)c([N+](=O)[O-])c1 | i | -10 | -1 | 1 | 12 | -1 | 2 | 6
CC(C)Oc1ccc(C(=O)NC(=S)N2CCOCC2)cc1 | i | 5 | 6 | -14 | -22 | -7 | 2 | 4
CCCc1nc2ccccc2c(C(=O)OC2CCOC2=O)c1CC (centres undefined) | i | -1 | 2 | -5 | nt | -2 | -2 | 1
NS(=O)(=O)OCCCc1ccccc1 | i | 0 | 5 | -27 | 0 | -10 | 3 | -4
CCOc1ccc(Cl)cc1S(=O)(=O)N1CCC(C(=O)NCc2ccccn2)CC1 | i | -3 | -1 | -17 | -3 | -4 | 1 | 0
Cc1nc(N2CCNCC2)c2c3c(sc2n1)CCCC3 | i | -2 | -1 | -7 | nt | -4 | -5 | -2
Cn1ncc([N+](=O)[O-])c1C(=O)NC1CCCCCC1 | i | -1 | 4 | 16 | nt | nt | -10 | 13
Cc1cc(NC(=O)CSc2nnc(COc3ccccc3)n2Cc2ccco2)no1 | i | 8 | 6 | -16 | nt | 7 | 2 | 0
O=Cc1c(NCCc2cccc(F)c2)c2ccccc2[nH]c1=O | i | -3 | -2 | -14 | 2 | -11 | -5 | 0
N#CC(Cc1ccccc1)(Cc1ccccc1)C(=O)NN | i | -1 | 4 | -25 | ? | -12 | -14 | -4
O=C(Nc1ccccc1-c1ccccc1)NC1CC2CCCC(C1)N2CCc1ccccc1 (centres undefined) | nt | 0 | 2 | nt | -9 | nt | 5 | -10
Cc1ccc(-c2csc(CC(N)=O)n2)cc1 | i | 13 | -1 | 11 | -5 | 0 | -6 | -5
O=C(Nc1nc2ccccc2s1)c1ccc2sc([C@H]3C[C@H](O)[C@@H](CO)O3)nc2c1 | nt | 4 | -11 | -12 | -27 | nt | nt | nt
O=C(C1CCCN(Cc2cccc(Cl)c2)C1)N1CCCCC1 (centres undefined) | i | 2 | 5 | -10 | 2 | -9 | 7 | 11
COc1ccc(OC)c(CNc2c(C=O)c(=O)[nH]c3ccccc23)c1 | i | 2 | -5 | 0 | -3 | -7 | -3 | -4
COc1cc(OC)c(CN2CCCN(C)CC2)cc1Br | i | 4 | 4 | -26 | -20 | -13 | 12 | -1
O=C1CNC(=S)N1Cc1ccc(F)cc1 | i | -8 | 7 | -8 | nt | 4 | -2 | 9
CC(=O)c1ccc(N2CCN(c3ccc(S(=O)(=O)N4CCN(C)CC4)cn3)CC2)cc1 | i | 1 | -3 | -26 | nt | -20 | 6 | -5
Cc1nn(C)c(Cl)c1CN1CCC(CO)(CC2CCCCO2)CC1 (centres undefined) | i | 5 | 4 | -17 | 7 | 5 | -9 | -2

6 of the entries above in order of their number in Yeast UUG start, low to high.
canonical_smiles | Rce1 inhib | MT1-MMP act inh | MT1-MMP act inh RFP | Yeast UUG start | Env fusion inh
CC(=O)c1ccc(N2CCN(c3ccc(S(=O)(=O)N4CCN(C)CC4)cn3)CC2)cc1 | i | 1 | -3 | -26 | nt
CCOc1ccc(Cl)cc1S(=O)(=O)N1CCC(C(=O)NCc2ccccn2)CC1 | i | -3 | -1 | -17 | -3
Cc1cc(NC(=O)CSc2nnc(COc3ccccc3)n2Cc2ccco2)no1 | i | 8 | 6 | -16 | nt
COc1ccc(OC)c(CNc2c(C=O)c(=O)[nH]c3ccccc23)c1 | i | 2 | -5 | 0 | -3
Cc1ccc(-c2csc(CC(N)=O)n2)cc1 | i | 13 | -1 | 11 | -5
Cn1ncc([N+](=O)[O-])c1C(=O)NC1CCCCCC1 | i | -1 | 4 | 16 | nt

This is a random part of the collection; 2.9% or so of the library scored in one or more.
